HRas wt GTP: modulators of GTP binding to human HRas wildtype; P01112; GST-Ras wt beads, Bodipy-FL-GTP binding, flow cytometry; actives lie on both sides; GTP binding activity, % at 10 µM; actives 0.14% (n = 190,000); AID 759;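 active means GTP binding activity at least 20% away from the 100% baseline, either lowered as inhibitor or raised as activator; inconclusive means flagged as likely green fluorescent, judged across all proteins in the well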;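 further: 0% = unlabeled GTP competition control and 100% = no-compound control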
Target sequence (P01112 whole entry, looked up): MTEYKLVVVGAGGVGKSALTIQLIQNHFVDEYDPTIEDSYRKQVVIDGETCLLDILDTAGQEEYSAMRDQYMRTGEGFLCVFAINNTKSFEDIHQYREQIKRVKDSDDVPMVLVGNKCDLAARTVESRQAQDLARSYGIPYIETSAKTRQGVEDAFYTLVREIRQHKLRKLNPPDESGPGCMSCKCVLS
Rac1 mut GTP: alters GTP binding to activated mutant human Rac1; P63000; GST-Rac1 activated beads, fluorescent GTP binding, flow cytometry; actives lie on both sides; 100% means binding = to untreated wells; percent activity (GTP binding), % at 10 µM; actives 0.11% (n = 190,000); AID 764;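 active means GTP binding at least 20 percentage points away from the 100% baseline, in either direction, so actives lie on both sides; inconclusive means Compound likely fluorescent itself, or too few beads counted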
Rac1 wt GTP bind: alters GTP binding to wildtype human Rac1 | P63000 | GST-Rac1 beads, fluorescent GTP binding, flow cytometry; actives lie on both sides; 0 = cold GTP competed, 100 = untreated | GTP binding activity (% of control), % at 10 µM | actives 0.27% (n = 190,000);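 active means GTP binding activity at least 20 points away from the 100% control level, either lower or higher; inconclusive means compound flagged as likely green fluorescent, judged across all proteins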
Pf gametocyte: kills late stage P. falciparum gametocytes | P. falciparum stage V gametocytes, ATP luminescence, 24 h | inhibition, % at 10.9 µM | actives 0.065% (n = 150,000);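 active means inhibition above the mean plus 3 SD of compounds within the control limits, set per campaign, cut at about 38% in these data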;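 further: 0% = DMSO wells and 100% = medium only without gametocytes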
RGS8-Gao reg: modulates binding of RGS8 to human Galphao; P09471; multiplexed bead flow cytometry; actives lie on both sides; response (percent of control binding), % at 10 µM; actives 0.34% (n = 220,000); AID 1423; in the data active means response below about 60% or above about 140%; inactive means in between;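 further: Galphao activated as the GDP aluminium fluoride complex binding bead-coupled RGS8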
Target sequence (P09471 whole entry, looked up): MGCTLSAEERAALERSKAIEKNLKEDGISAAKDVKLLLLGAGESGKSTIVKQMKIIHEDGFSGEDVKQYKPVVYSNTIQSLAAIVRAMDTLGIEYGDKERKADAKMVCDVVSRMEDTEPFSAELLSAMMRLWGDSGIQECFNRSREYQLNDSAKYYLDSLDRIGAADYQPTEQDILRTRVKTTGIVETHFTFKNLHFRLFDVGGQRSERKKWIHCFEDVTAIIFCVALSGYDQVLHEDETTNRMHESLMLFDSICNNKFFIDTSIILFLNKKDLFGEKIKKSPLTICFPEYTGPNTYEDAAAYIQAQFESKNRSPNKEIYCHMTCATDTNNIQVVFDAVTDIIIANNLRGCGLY
Cdc42 wt GTP: changes GTP binding to wildtype human Cdc42; GST-Cdc42 beads, Bodipy-GTP binding, flow cytometry; actives lie on both sides; actives 0.2% (n = 190,000); percent activity (GTP binding), % at 10 µM; P60953;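 active means percent activity GTP binding at least 20 points away from the 100% baseline, either down as inhibitor or up as activator; inconclusive means compound flagged as likely green fluorescent from well-wide comparison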;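 further: median bead fluorescence of bound Bodipy-FL-GTP at 100 nM; 0% = excess unlabeled GTP control and 100% = no compound control; below 100% means less GTP binding so inhibitor and above means activator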
Target sequence (P60953 whole entry, looked up): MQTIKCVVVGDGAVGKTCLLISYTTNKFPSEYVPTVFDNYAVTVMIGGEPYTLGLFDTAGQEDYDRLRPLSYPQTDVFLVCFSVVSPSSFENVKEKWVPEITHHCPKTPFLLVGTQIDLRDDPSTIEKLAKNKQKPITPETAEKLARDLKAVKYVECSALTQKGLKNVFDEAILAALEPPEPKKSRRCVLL
Rab7 wt modul: modulators of GTP binding to dog Rab7 wildtype GTPase. AID 758. GST-Rab7 beads, fluorescent GTP binding, flow cytometry; actives lie on both sides; untreated = 100%, excess cold GTP = 0%. actives 0.055% (n = 190,000). GTP binding activity (percent of control), % at 10 µM;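 active means fluorescent GTP binding to Rab7 beads changed by at least 20 points from the 100% baseline, either direction, mostly lower; inconclusive means compound itself probably fluorescent, or too few beads counted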;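 further: median green fluorescence of bound Bodipy-FL-GTP per Rab7 bead population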
Rab2 wt GTP: changes GTP binding to wildtype dog Rab2A, up or down; AID 760; GTP binding activity, % at 10 µM; actives 0.19% (n = 190,000); GST-Rab2 wt beads, Bodipy-GTP binding, flow cytometry;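 active means GTP binding activity at least 20 points away from 100%, either lowered or raised; inconclusive means signal likely due to the compound's own green fluorescence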;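 further: 0% = beads with excess unlabeled GTP and 100% = no-compound control corrected for plate trend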
The depositor's hits bear a star; ? = inconclusive; · = no result given.

SMILES	HRas wt GTP	Rac1 mut GTP	Rac1 wt GTP bind	Pf gametocyte	RGS8-Gao reg	Cdc42 wt GTP	Rab7 wt modul	Rab2 wt GTP
Cc1cc(C(F)F)n2ncc(C(=O)NCCc3ccc(Cl)cc3)c2n1	100	96	107	·	104	102	99	99
CC(C)=CCCC(C)CN1CCC(N2CCC(C(=O)N3CCCC3)CC2)CC1 (stereo unspecified)	99	97	102	6	102	99	96	99
O=C(N/N=C/c1c[nH]c2c1ccc1ccccc12)c1ccc([N+](=O)[O-])cc1	99	98	103	-5	86	102	98	100
NC(=O)C1CCN(Cc2nc3cc(Cl)ccc3c(=O)[nH]2)CC1	102	100	112	·	94	103	105	102
CCCCc1ccc(NC(=O)COCC)cc1	101	101	105	-6	100	106	100	102
CC(=O)Nc1sc2c(c1C(c1ccccn1)N1CCN(C)CC1)CCCC2 (stereo unspecified)	99	95	97	·	101	93	109	101
C#CCNC(=O)C1CCN(c2ccc(S(=O)(=O)N3CCOCC3)cc2Cl)CC1	97	98	97	8	102	99	106	100
Cc1ccc(C(=O)NC2CCCCCC2)cc1N1CCCC1=O	96	95	96	-7	102	98	96	95
NC(=O)C(c1ccc(Cl)cc1)c1ccc(Sc2ccccc2)nn1 (stereo unspecified)	104	98	101	·	96	104	101	102
Cn1c(NCc2ccco2)nc2c1c(=O)n(Cc1ccc(Br)cc1)c(=O)n2C	98	98	100	·	101	99	97	96
Cc1nc(N)nc(-c2ccccc2O)n1	99	97	99	·	103	101	99	97
C=CCNC(=O)NC(=O)CSc1nnc(C(F)(F)F)n1C	104	102	106	·	100	100	109	103
NS(=O)(=O)c1cccnc1Nc1cccc(Cl)c1Cl	103	101	108	14	100	104	103	102
C=CCn1c(CCNC(=O)c2cccs2)nnc1SCC(=O)Nc1cccc(Cl)c1C	99	97	98	-6	100	97	100	99
CC(C)=CCCC(C)CN1CCC(O)CC1 (stereo unspecified)	102	101	101	·	99	103	101	100
COC(=O)COc1cccc(NC(=O)c2cc(OC)cc(OC)c2)c1	97	95	96	3	94	99	99	92
COc1ccc2cc3cc(C(=O)NCCN4CCc5ccccc5C4)sc3nc2c1	99	97	102	2	99	99	99	100
Cc1sc2nc(CSc3ccccc3)nc(N3CCOCC3)c2c1C	100	98	102	5	100	98	98	101
Cc1cc2c(cc1S(=O)(=O)N(C)c1ccccc1)NC(=O)CO2	102	97	101	1	97	97	105	102
COC(=O)c1cc2ccsc2n1CC(=O)N(C)c1ccccc1	96	96	95	·	100	97	94	96
CCOC(=O)CSC1=NC(=O)/C(=C/c2ccc(OC)cc2)S1	96	91	96	·	92	95	99	94
COc1ccccc1OCc1nnc(SCC(=O)Nc2ccc(C)cc2)n1C	101	99	105	·	97	103	103	103
Cc1sc2nc(CN3CCCC3)nc(N3CCC(C(N)=O)CC3)c2c1C	107	102	103	1	99	106	100	106
O=C(Oc1oc(-c2ccco2)nc1C=Nc1ccccc1)c1ccoc1	97	96	105	-11	94	94	100	99
Cc1cccc(Nc2nc(N)nc(CSc3nccc(C)n3)n2)c1	94	93	93	·	99	93	99	91
COc1ccc(OC)c2sc(NC(=O)c3ccc(Br)s3)nc12	96	93	100	·	92	98	95	98
COC(=O)c1ccc2c(=O)[nH]c(CSc3nc(C)cs3)nc2c1	93	94	94	-14	109	94	98	94
O=C(NCCN1CCCCC1)c1ccco1	99	102	104	-9	102	101	93	100
CCCS(=O)(=O)N1CCn2c(nc3ccccc32)C1	101	99	101	·	105	97	96	98
COc1ccccc1-n1c(-c2cc(-c3ccc(F)cc3)n[nH]2)n[nH]c1=S	95	95	96	4	97	98	97	96
COc1ccc2cc(C#N)c(N3CCN(Cc4nnnn4CCC(C)C)CC3)nc2c1	98	102	104	·	98	94	97	97
CCOC(=O)c1cc(Br)c(=O)n2ccccc12	97	95	97	0	105	95	95	95
CCOC(=O)N1CCC(N(C(=O)Nc2ccc(CC)cc2)C(C)CC)CC1 (stereo unspecified)	96	96	94	·	102	95	96	95
CC(C)CCNC(=O)NC(=O)COC(=O)/C=C/c1cccc([N+](=O)[O-])c1	95	93	97	-8	96	93	99	94
CSc1nnc2c(n1)[nH]c1c(C)cccc12	94	94	93	·	98	94	95	93
N#Cc1cnc(SCC(=O)NNC(=O)COc2cccc3ccccc23)nc1N	?	?	?	-18	105	?	?	?
CCCCC(=O)Nc1nc2c(OC)ccc(OC)c2s1	104	101	108	·	99	106	100	102
COc1cccc(OCCNC(=O)CSc2ccc(C(F)(F)F)cc2[N+](=O)[O-])c1	98	98	97	·	104	98	97	97
CN(C)c1oc(/C=C/c2ccccc2)nc1C#N	102	98	102	-16	92	102	95	101
CCOC(=O)C(C(C)C)C(N)Cc1ccc(F)cc1 (stereo unspecified)	98	97	99	-9	102	100	99	98

2 entries from above, set out differently.
The line under a structure holds: HRas wt GTP | Rac1 mut GTP | Rac1 wt GTP bind | Pf gametocyte | RGS8-Gao reg | Cdc42 wt GTP | Rab7 wt modul | Rab2 wt GTP
CCOC(=O)CSC1=NC(=O)/C(=C/c2ccc(OC)cc2)S1
    96 | 91 | 96 | · | 92 | 95 | 99 | 94
COc1ccccc1OCc1nnc(SCC(=O)Nc2ccc(C)cc2)n1C
    101 | 99 | 105 | · | 97 | 103 | 103 | 103

Further results follow:
SMILES	HRas wt GTP	Rac1 mut GTP	Rac1 wt GTP bind	Pf gametocyte	RGS8-Gao reg	Cdc42 wt GTP	Rab7 wt modul	Rab2 wt GTP
O=C(NCc1ccccc1)c1nc2ccccc2s1	97	94	101	-16	100	95	100	94
COc1ccc(S(=O)(=O)N(CCN2CCOCC2)Cc2cc(OC)ccc2OC)cc1	102	102	105	17	122	105	102	102
COc1cc2c(cc1OC)-c1cc(N3CCCc4ccccc43)nc(=O)n1CC2	102	101	105	-23	102	104	101	101
CCCN1CCN(C(=O)c2nn(-c3ccc(OC)cc3)c(=O)c3c2c2ccccc2n3C)CC1	99	97	102	·	99	95	98	98
Cc1ccc(-n2nc(C(=O)NCc3ccco3)c3c4ccccc4n(C)c3c2=O)cc1	101	100	109	-6	99	107	100	100
CCCOc1ccc(OCCOCCN2CCc3ccccc3C2)cc1	103	100	108	17	99	104	105	102
Cc1ccc(Nc2nc(N)nc(CSc3nnnn3-c3ccccc3)n2)cc1	98	95	95	9	107	96	97	96
Cc1c(C=O)c2ccccn2c1C(=O)c1ccccc1	99	101	107	12	96	106	95	101
COc1ccc(NC(=O)CC2C(=O)N(C)C(=S)N2Cc2ccco2)cc1 (stereo unspecified)	100	100	106	-20	95	102	98	99
Cc1cccc(Nc2nc(-c3ccccc3)c(C(=O)Nc3cccnc3)s2)c1	99	96	102	7	101	97	99	98
COc1ccccc1NC(=O)COc1ccc(/C=N/NC(=O)CSCc2ccc(Cl)cc2)cc1	97	95	97	·	102	97	98	95
CC(C)CCN1CCN(C/C=C/c2ccco2)CC1CCO (stereo unspecified)	98	93	94	-9	107	94	108	101
CC(=O)Nc1ccc(Nc2nc(C)c([N+](=O)[O-])c(Nc3ccc(NC(C)=O)cc3)n2)cc1	96	98	100	·	102	100	95	96
Cc1ccc(CNCc2cc3c(C(C)(C)C)nn(-c4ccccc4)c3[nH]c2=O)cc1	99	97	100	2	97	97	98	98
O=C(CN1CCN(Cc2ccc(Cl)cc2)CC1)N/N=C/C=C/c1ccccc1[N+](=O)[O-]	101	99	103	6	103	104	101	99
N=C1S/C(=C\c2ccc(O)cc2)C(=O)N1c1ccc(F)cc1	102	96	100	·	100	97	106	99
O=C(Nc1ccc(F)cc1F)c1noc2c1CCC2	97	94	96	·	100	97	94	93
COc1ccc(/C=N/Nc2cc(C)nc(-n3nc(C)cc3C)n2)cc1	96	97	99	0	102	100	97	94
CCC(C)C(NC(=O)c1ccccc1NC(=O)c1ccc(OC)cc1)C(=O)NCc1ccco1 (stereo unspecified)	102	100	107	·	97	103	104	103
Cc1ccc(-c2cc(C(F)F)n3ncc(C(=O)NCc4ccco4)c3n2)cc1	98	99	102	17	100	99	100	99

Arranged by value in Rac1 mut GTP (highest first): some entries from above.
Structure	HRas wt GTP	Rac1 mut GTP	Rac1 wt GTP bind	RGS8-Gao reg	Cdc42 wt GTP	Rab7 wt modul	Rab2 wt GTP
CCC(C)C(NC(=O)c1ccccc1NC(=O)c1ccc(OC)cc1)C(=O)NCc1ccco1 (stereo unspecified)	102	100	107	97	103	104	103
O=C(CN1CCN(Cc2ccc(Cl)cc2)CC1)N/N=C/C=C/c1ccccc1[N+](=O)[O-]	101	99	103	103	104	101	99
COc1ccc(/C=N/Nc2cc(C)nc(-n3nc(C)cc3C)n2)cc1	96	97	99	102	100	97	94
COc1ccccc1NC(=O)COc1ccc(/C=N/NC(=O)CSCc2ccc(Cl)cc2)cc1	97	95	97	102	97	98	95
O=C(Nc1ccc(F)cc1F)c1noc2c1CCC2	97	94	96	100	97	94	93

Reprinted from the entries so far, 4 compounds:
SMILES	HRas wt GTP	Rac1 mut GTP	Rac1 wt GTP bind	Pf gametocyte	RGS8-Gao reg	Cdc42 wt GTP	Rab7 wt modul	Rab2 wt GTP
COc1ccc(OC)c2sc(NC(=O)c3ccc(Br)s3)nc12	96	93	100	·	92	98	95	98
COC(=O)c1ccc2c(=O)[nH]c(CSc3nc(C)cs3)nc2c1	93	94	94	-14	109	94	98	94
O=C(NCCN1CCCCC1)c1ccco1	99	102	104	-9	102	101	93	100
CCCS(=O)(=O)N1CCn2c(nc3ccccc32)C1	101	99	101	·	105	97	96	98

New compounds follow.
SMILES	HRas wt GTP	Rac1 mut GTP	Rac1 wt GTP bind	Pf gametocyte	RGS8-Gao reg	Cdc42 wt GTP	Rab7 wt modul	Rab2 wt GTP
CCOc1ccc(N2C(=O)C3ON(c4ccccc4)C(c4ccco4)C3C2=O)cc1 (stereo unspecified)	95	93	100	6	101	95	98	96
N#C/C(=C/c1ccc(-c2ccccc2)o1)c1nc(-c2cccs2)cs1	?	?	?	-18	99	?	?	?
CCOC(=O)Nc1ccc2c(c1)N(C(=O)CN1CCN3CCCC3C1)c1ccccc1CC2 (stereo unspecified)	98	97	99	·	101	98	96	97
Cc1c(/C=N/NC(=O)c2cc(=O)[nH]c(=O)[nH]2)c2ccccn2c1C(=O)c1ccccc1	96	96	102	13	114	98	98	97
Clc1ccccc1-c1nc(-c2ccccc2)n[nH]1	100	96	100	21	101	98	98	97
Cc1ccc(NC2c3ncccc3C(=O)N2C2CCCCC2)cc1C (stereo unspecified)	100	97	103	1	104	100	101	100
Cc1cc2c(C)nc(N/N=C/c3ccc(F)cc3)nc2o1	103	102	104	2	103	102	100	103
COc1ccc(NC(=O)C2(c3ccc(NC(=O)c4ccc(OC(C)=O)cc4)cc3)CCCC2)cc1	103	102	108	·	99	106	102	101
CN(C)S(=O)(=O)NCc1ccc2c(c1)OCO2	104	99	111	·	100	105	103	103
COc1cccc(C(=O)COc2ccccc2N2C(=O)C3C4C=CC(C4)C3C2=O)c1 (stereo unspecified)	102	99	105	·	99	101	100	101
Cc1ccc(Nc2nc(N)nc(CSc3nc(C)cc(C)n3)n2)cc1	99	96	97	·	101	100	97	97
COc1ccc2c(c1)c1nc3ccccc3nc1n2CCCN1C(=O)c2ccccc2C1=O	100	101	104	·	103	103	102	100
Cc1nc(-c2cccnc2)sc1C(=O)Nc1ccc(C(F)(F)F)cc1	98	90	94	9	96	96	96	97
Cc1ccc(SCC(=O)Nc2ccc(S(N)(=O)=O)cc2)cc1	99	98	99	18	97	99	97	100
C/C(N)=C(/C#N)C(=O)CSc1nnc(Nc2cccc(C)c2)s1	100	104	101	·	100	97	96	99
CCCCCNCc1ccc(Cl)cc1	96	94	93	-20	101	95	104	97

Bioassay records (PubChem)

Not all compounds are listed; count on the stated rates, not on these rows.
